# Screening data from PubChem BioAssay.
# YopH inh: inhibitors of Yersinia enterocolitica YopH tyrosine phosphatase; actives 0.16% (n = 140,000); fluorescence Ex485/Em525; inhibition, %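 (about 10 µM by stock and volumes)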;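 active means inhibition of 50% or more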;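 further: controls were vehicle for no effect and minimum signal wells for full effect; inactives centre near -20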
# Arbovirus anti: antivirals against arbovirus infection; arbovirus infection cell-based antiviral screen; inhibition, % at 10 µM; actives 0.37% (n = 200,000);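 active means inhibition from about 30%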;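 further: bluetongue infection of BSR cells; cell survival read as ATP light after 72 h; 0% = infected wells without compound and 100% = uninfected wells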
# RecA intein inh: blocks M. tuberculosis RecA intein splicing; P9WHJ3; cell-free RecA intein splicing, fluorescence; inhibition, %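 (about 9 µM by stock and volumes)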; actives 0.75% (n = 290,000); in the data active means inhibition above about 30%;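 further: 0% = vehicle wells and 100% = reference inhibitor control wells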
# Target sequence (P9WHJ3 whole entry, looked up): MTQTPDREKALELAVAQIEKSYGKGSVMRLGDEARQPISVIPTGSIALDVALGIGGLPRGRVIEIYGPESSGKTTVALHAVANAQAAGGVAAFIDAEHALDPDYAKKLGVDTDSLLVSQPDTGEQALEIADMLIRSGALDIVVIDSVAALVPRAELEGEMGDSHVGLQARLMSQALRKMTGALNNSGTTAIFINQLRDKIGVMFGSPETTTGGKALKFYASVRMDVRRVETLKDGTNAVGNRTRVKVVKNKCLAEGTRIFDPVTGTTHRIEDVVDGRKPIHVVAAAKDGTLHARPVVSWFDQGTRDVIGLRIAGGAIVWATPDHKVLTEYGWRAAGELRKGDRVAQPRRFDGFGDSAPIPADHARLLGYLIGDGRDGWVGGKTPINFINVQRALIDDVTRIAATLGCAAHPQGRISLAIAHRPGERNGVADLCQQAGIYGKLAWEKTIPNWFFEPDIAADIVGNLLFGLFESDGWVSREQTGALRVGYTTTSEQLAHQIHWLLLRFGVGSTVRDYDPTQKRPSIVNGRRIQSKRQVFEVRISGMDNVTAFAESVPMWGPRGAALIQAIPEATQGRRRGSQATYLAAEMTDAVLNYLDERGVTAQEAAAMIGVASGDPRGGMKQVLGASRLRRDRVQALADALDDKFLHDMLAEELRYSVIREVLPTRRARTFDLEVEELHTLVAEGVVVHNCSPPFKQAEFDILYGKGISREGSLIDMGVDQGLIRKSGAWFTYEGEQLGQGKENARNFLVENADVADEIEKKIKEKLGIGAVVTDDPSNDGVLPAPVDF
# Mtb H37Rv: M. tuberculosis H37Rv growth inhibitors, H37Rv strain (AID 1626). M. tuberculosis H37Rv growth inhibition; higher % means a stronger effect. inhibition, % at 10 µM, or IC50 in µM where a hit was titrated. actives 0.95% (n = 220,000);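 active means confirmed in a dose series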;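 further: bacteria incubated seven days before Alamar blue readout; 0% = bacteria only wells and 100% = bacteria with antibiotic wells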
# Mtb betalactam: beta-lactam sensitization of Mtb H37Rv; inhibition, % at 25 µM; actives 0.27% (n = 330,000); AID 434955; M. tuberculosis H37Rv growth with meropenem, percent inhibition; hits of this screen are not shown here;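 active means about 74% or more and at least 40 points above the plate without the antibiotic, then above 30% in a dose series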;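 further: growth measured after seven days incubation then overnight dye step; 0% = bacteria only wells and 100% = bacteria with antibiotic; twin plates without the antibiotic show which effects depend on it; some results filed as inactive read as strong as hits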
# Numbers without * were called inactive; · = no result given. The list is partial; the hit share may differ from the screen's.
# Under each structure – YopH inh | Arbovirus anti | RecA intein inh | Mtb H37Rv | Mtb betalactam
> CC(OC(=O)CCCC(=O)Nc1ccc(F)cc1)C(=O)c1ccccc1 (stereo not drawn)
 : · | · | -2.6 | · | 1
> CC(=O)c1ccc(NC(=O)Nc2ccc([N+](=O)[O-])cc2C)cc1
 : -11 | -13 | -3.3 | -7% | 6
> COc1ccccc1NC(=O)C1CCC(CNc2c(N3CCCCC3)c(=O)c2=O)CC1 (stereo not drawn)
 : · | · | -0.3 | -2% | -9
> Cc1ccccc1C(=O)NNC(=O)Cc1ccccc1
 : -8 | 9 | -9.5 | 0% | 2
> CCCCn1c(N)c(N(CCC(C)C)C(=O)CSc2nnc(C)s2)c(=O)[nH]c1=O
 : -19 | 5 | 0.3 | 1% | -4
> CCS(=O)(=O)N1CCc2nc(-c3ccccc3)sc2C1
 : · | · | 1.9 | · | 0
> COc1cccc(/C=N/NC(=O)c2cccs2)c1
 : · | · | 0.1 | -2% | 2
> CC(=O)c1cn(-c2ccc(Cl)cc2)c(=O)n(Cc2ccc(F)cc2)c1=O
 : · | -2 | 0.1 | -5% | 3
> CCCCS(=O)(=O)Nc1ccc(Cc2ccncc2)cc1
 : -99 | 2 | 3.3 | -4% | 9
> FC(F)(F)c1cccc(N2CCC(N=CN3CCCCCC3)=N2)c1
 : · | -6 | 1.6 | 51% | -11
> CCOC(=O)c1cnc2ccc(C)cc2c1Sc1ccc(F)cc1
 : -25 | 12 | 67* | · | 2
> COc1cccc(CNCc2cccc(Br)c2)c1OC
 : · | 11 | 0.8 | 7% | -7
> Cc1cccc(OCC(=O)N2CCC3(CC2)CC(=O)c2ccccc2O3)c1
 : · | · | -1.4 | · | -13
> Cn1c(CNC(=O)c2ccc(Cl)cc2)nnc1SCC(=O)Nc1sc2c(c1C#N)CCCC2
 : -17 | -6 | 4.1 | -13% | -7
> CCN(CC)CCn1c2c(c(SCC(=O)Nc3ccccc3Cl)nc1=O)CCCC2
 : · | · | -3.6 | · | -7
> COc1ccc(NC(=O)Nc2cccc3ccccc23)c(OC)c1
 : · | · | 1.2 | · | 70
> NC(CO)C(=O)NNCc1ccc(O)c(O)c1O (stereo not drawn)
 : -13 | 8 | 12 | -6% | 5
> O=C(Nc1cccc2ncccc12)c1cc2ccccc2o1
 : -26 | -2 | 1.7 | -6% | 3
> Cc1cccc2c(Cl)cc(=O)[nH]c12
 : -3 | 2 | 2.0 | 0% | ·
> Cc1csc(SCC(=O)NC23CC4CC(CC(C4)C2)C3)n1
 : -4 | 6 | 4.5 | 1% | 7
> N#C/C(=C\c1c(N2CCOCC2)nc2ccccn2c1=O)S(=O)(=O)c1ccccc1
 : -3 | 1 | -2.6 | 17% | 61
> COc1cc(Cl)ccc1OCc1cc(C(=O)NCC(C)c2ccccc2)no1 (stereo not drawn)
 : · | · | 1.0 | · | 0
> CCC(COC)NCc1cn(-c2ccc(F)cc2F)nc1-c1ccccc1C (stereo not drawn)
 : · | 8 | -0.1 | 0% | -2
> CC1CCN(c2nc3c(cc2C#N)COC(C)(C)C3)CC1
 : · | -2 | -3.0 | 1% | -11
> COC(=O)COc1c(Cl)cc(Cl)c2ccc(C)nc12
 : · | -5 | 15 | 70% | 66
> COc1ccc(NC(=O)c2sc(N3CCOCC3)nc2-c2ccccc2)c(OC)c1
 : -2 | -13 | 1.1 | 29% | 70
> CN(C(=O)c1ccc(C#N)cc1)c1nnc(-c2cnccn2)s1
 : · | · | -0.9 | -10% | -3
> CN(C)c1oc(-c2ccccc2Cl)nc1C#N
 : 0 | 1 | -3.9 | · | 1
> COc1ccc(NC(=S)NCc2ccc(S(N)(=O)=O)cc2)cc1OC
 : · | 7 | 0.1 | -8% | 1
> CCOC(=O)N1CCN(C(=O)c2ccc(Oc3ccc([N+](=O)[O-])cc3)cc2)CC1
 : · | 8 | 1.6 | 7% | -11
> COc1ccc(NS(=O)(=O)c2ccc(NS(C)(=O)=O)cc2)cc1
 : -29 | 3 | -0.9 | -4% | -5
> COc1ccccc1NC(=O)CCn1c(=O)sc2ccccc21
 : -26 | -6 | 0.3 | 11% | 2
> CN1CCC(=NNC(=O)CN(c2cccc(Cl)c2)S(C)(=O)=O)CC1
 : · | 18 | 2.0 | -1% | 4
> COc1cc(C(=O)NC2CCCc3ccccc32)cc(OC)c1OC (stereo not drawn)
 : · | · | -1.1 | · | -2
> C=Cn1cc[n+](CC(=O)c2ccc(Br)cc2)c1
 : · | · | -0.7 | · | -3
> CCCc1nc2c(=O)n(C)c(=O)nc-2n(C)n1
 : · | -21 | · | 73% | ·
> CCOc1ccc(/C=N\NC(=O)c2c(C)nc3cc(C)ccn23)cc1
 : · | · | -3.8 | · | 5
> CN1CCN(c2ccc(CNC(=O)c3ccco3)cc2)CC1
 : · | · | 0.6 | -12% | -9
> COc1cc(C(=O)NCCNC(=O)c2ccc(C)nc2)cc(OC)c1OC
 : · | · | 1.0 | · | -5
> Cc1ccc(-n2c(Cc3cccs3)nnc2SCC(N)=O)cc1
 : -5 | 8 | 1.4 | -6% | -3
> O=C(NCC(c1cccnc1)N1CCN(c2ccc(F)cc2)CC1)C1CCCCC1 (stereo not drawn)
 : -22 | 9 | -1.2 | 0% | -12
> Cc1ccccc1C(=O)NC1CCN(Cc2nnnn2Cc2ccccc2)CC1
 : 9 | 5 | -1.9 | -5% | 3
> CCC(CC)C(=O)c1c[nH]c(C(=O)OC)c1
 : · | 2 | 11 | -4% | 0
> O=C(Cn1c(=O)c2c(ncn2Cc2ccccc2)n(Cc2ccccc2)c1=O)N1CCCC1
 : -43 | -3 | 13 | 10% | 5
> N#C/C(=C\Nc1ccc(F)c(Cl)c1)S(=O)(=O)c1ccccn1
 : · | · | 2.0 | -9% | -7
> Cc1cnn(C(=S)NCc2ccc(Cl)cc2)c1
 : 3 | 9 | 10 | -7% | 16
> Cc1ccccc1-n1cc(CNC(=O)C2CCC(=O)N(C3CC3)C2)cn1 (stereo not drawn)
 : · | · | -1.4 | · | -8
> CCC(=O)Nc1cc(-c2nn(C)c(=O)c3ccccc23)ccc1N1CCOCC1
 : -23 | -5 | 0.7 | · | -4
> Cc1cc(C(C)(C)C)cc(C)c1C(=O)O
 : · | · | -2.3 | -4% | 3
> COCCNC(=O)C(=O)NCC1OCCN1S(=O)(=O)c1cc(F)ccc1F (stereo not drawn)
 : · | · | -0.3 | · | -4
> CCOc1ccc(NC(=O)C2Cc3ccccc3CN2S(=O)(=O)CC)cc1 (stereo not drawn)
 : · | 0 | 1.0 | 5% | -5
> CCC12CN3CC(CC)(CN(C1)C3c1ccc([N+](=O)[O-])o1)C2=O (stereo not drawn)
 : · | 6 | -4.3 | -6% | 66
> Cc1ccc(-c2nn(-c3ccccc3)cc2/C=C2\SC(=S)N(CC(=O)O)C2=O)cc1
 : · | · | 18 | -2% | -5
> Cc1ccc(SCc2ccc(C(=O)Nc3cccc([N+](=O)[O-])c3)cc2)cc1
 : -37 | 5 | 0.5 | 5% | 4
> COc1ccc(C(=O)Nc2sc3c(c2C(=O)O)CC(C)(C)OC3)cc1
 : 3 | 34* | 3.5 | 14% | 26
> Cc1cccc2nc(CSc3ccc(Cl)cc3)cn12
 : · | 1 | 4.7 | -1% | 4
> CCOC(=O)C1(C)C=C(Nc2cccc(OC)c2)C(=O)N1c1ccccc1 (stereo not drawn)
 : · | · | 2.7 | 9% | 2
> Cc1ccoc1C(=O)N1CCN(C(=O)c2occc2C)CC1
 : · | · | -0.5 | · | 3
> COc1ccc(C2=NN(C(=O)CSc3nnc(C)c(=O)n3N)C(c3ccco3)C2)cc1 (stereo not drawn)
 : · | 2 | 3.0 | 4% | -2
> CCN(CC)CCNc1nc2c(c(=O)n(C)c(=O)n2C)n1C/C=C(/C)Cl
 : -39 | 8 | -2.6 | 4% | -10

# Going on with the list:
# Under each structure – YopH inh | Arbovirus anti | RecA intein inh | Mtb H37Rv | Mtb betalactam
> O=C(CN1C(=O)S/C(=C\c2ccccc2)C1=O)NNC(=O)c1ccccc1O
 : -32 | -22 | -2.9 | 9% | 5
> Cc1ccc2c(ccc(=S)n2C)c1
 : · | 1 | -3.1 | 2% | -3
> Cc1nc(SCC(=O)NCC(F)(F)F)c2c(-c3cccs3)csc2n1
 : -38 | -11 | -0.7 | 0% | -1
> COc1ccc(CCNCc2ccccc2N2CCCC2)cc1
 : · | · | 5.5 | · | -2
> C/C(CC(=O)NCc1ccccc1Cl)=N/NC(=O)c1ccccn1
 : · | · | -3.5 | · | 99
> CCN(CC)C(=O)CSc1nc2c(sc(=S)n2-c2ccc(C)cc2C)c(=O)[nH]1
 : · | · | -6.2 | · | -5
> Cc1ccc(-c2nnc(SCC(=O)N3CCCC3)o2)cc1
 : -11 | 0 | 1.9 | 6% | 18
> CCOC(=O)c1ccc(N2C(=O)CC(N3CCN(C(=O)c4ccco4)CC3)C2=O)cc1 (stereo not drawn)
 : -37 | 1 | 1.9 | 4% | -14
> CC/C(=N\NC(=O)c1ccc(-c2ccccc2)cc1)C12CC3CC(CC(C3)C1)C2
 : 3 | -22 | 0.4 | 4% | ·
> COc1ccccc1CNC(=O)CCC(=O)Nc1nnc(C)s1
 : -12 | 3 | -0.5 | -8% | -3
> C[N+]1(CC#CC(O)(c2ccccc2)c2ccccc2)CCCC1
 : -26 | -1 | -1.7 | -4% | -3
> O=C(Nc1cc(S(=O)(=O)N2CCOCC2)ccc1N1CCOCC1)c1cc(=O)[nH]c2ccccc12
 : · | -1 | -0.8 | -10% | 1
> CCCNC1=C(C)C(=O)CC1
 : -11 | -2 | 0.1 | -5% | 2
> O=C(/C=C/c1ccc(F)cc1)NCCCN1CCN(CCCNC(=O)/C=C/c2ccc(F)cc2)CC1
 : 3 | 4 | 1.0 | 2% | -5
> Cc1ccc(-n2c(C)cc(C(=S)N3CCOCC3)c2C)cc1C
 : 3 | 0 | 7.1 | 2% | 25
> COc1cc(-c2cc(C(=O)NCCc3ccc(S(N)(=O)=O)cc3)c3ccccc3n2)cc(OC)c1OC
 : · | · | 0.2 | 3% | 2
> CCOc1ccc(N(CC(=O)Nc2ccccc2C(=O)NCc2ccco2)S(C)(=O)=O)cc1
 : 0 | 2 | 2.8 | 5% | -5
> CCN(CC)C1=CC(=[N+]2CCCC2)CC(C)(C)C1
 : -24 | 8 | -2.9 | -9% | -4
> CC(C)c1nnc(NC(=O)CCC(=O)N2CCN(c3ccc(Cl)cc3)CC2)s1
 : · | · | -1.5 | · | 92
> O=S(=O)(Nc1ccccc1F)c1ccc2nsnc2c1
 : -32 | 1 | 2.6 | -9% | -5
> S=c1[nH]nc2nnc3ccccc3n12
 : · | · | 13 | -3% | 5
> Cc1occc1C(=O)Nc1ccccc1C(=O)O
 : -32 | 2 | 0.2 | -6% | -12
> CCC(CC)C(=O)Nc1cccc(C(=O)N2CCCC2)c1
 : 6 | 8 | -0.4 | -9% | -15
> Cc1ccc2nsnc2c1S(=O)(=O)N(CCO)Cc1cc2cc3c(cc2[nH]c1=O)OCCO3
 : -13 | 8 | -7.4 | -7% | -4
> Cc1c(C(=O)O)oc2c1C(=O)CC(C)(C)C2
 : · | -5 | 5.7 | -8% | 6
> COc1cc(OC)c(OC)cc1CN(C)CC1CCCN(CCc2ccccc2F)C1 (stereo not drawn)
 : · | · | -0.7 | · | -5
> CCOC(=O)Nc1ccc(C(=O)/C=C/c2ccccc2)cc1
 : · | · | 3.3 | 10% | 90
> COc1ccc(-c2csc(NC3OC(=O)c4c3ccc(OC)c4OC)n2)cc1OC (stereo not drawn)
 : · | · | 2.0 | -4% | 2
> COc1ccc(C2=NN(C(C#N)c3ccc(OC)cc3)C(c3ccccc3)C2)cc1 (stereo not drawn)
 : -26 | -9 | 0.6 | 15% | 0
> CC1(C)CNC(=O)c2sc(NC(=O)c3ccccc3)nc2C1
 : · | 9 | 3.5 | -2% | 3
> CCN(CC)c1ccc(C=Nc2ccccc2)c(O)c1
 : 52* | -6 | -4.5 | 5% | 7
> O=C1C(=Cc2ccc(Br)o2)C(=O)c2ccccc21
 : 28 | -24 | · | 11% | 4
> COc1cc(S(=O)(=O)n2cnc3ccccc32)ccc1Br
 : · | · | -0.6 | · | -8
> Cc1ccnc(S(=O)(=O)Cc2ccc([N+](=O)[O-])cc2)n1
 : · | · | 2.2 | · | 8
> Cn1c2ccccc2c2c(C(=O)N3CCC4(CC3)OCCO4)cn(C3CCCC3)c(=O)c21
 : -10 | -14 | -1.3 | -5% | -11

# Ordered by SMILES length (smallest number first): six of the compounds above.
# Under each structure – YopH inh | Arbovirus anti | RecA intein inh | Mtb H37Rv | Mtb betalactam
> COc1cccc(/C=N/NC(=O)c2cccs2)c1
 : · | · | 0.1 | -2% | 2
> Cc1c(C(=O)O)oc2c1C(=O)CC(C)(C)C2
 : · | -5 | 5.7 | -8% | 6
> CC1CCN(c2nc3c(cc2C#N)COC(C)(C)C3)CC1
 : · | -2 | -3.0 | 1% | -11
> Cc1ccnc(S(=O)(=O)Cc2ccc([N+](=O)[O-])cc2)n1
 : · | · | 2.2 | · | 8
> CC(=O)c1ccc(NC(=O)Nc2ccc([N+](=O)[O-])cc2C)cc1
 : -11 | -13 | -3.3 | -7% | 6
> CC(C)c1nnc(NC(=O)CCC(=O)N2CCN(c3ccc(Cl)cc3)CC2)s1
 : · | · | -1.5 | · | 92
